Screening results as filed in PubChem BioAssay.
UCH37 inh: inhibitors of human deubiquitinating enzyme UCH37; inhibition, % (no concentration beside the values); 0.33% of 330,000 active; purified proteasome/UCH37, Ub-AMC cleavage fluorescence;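 active means mean of two replicates above 20%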;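 further: 0% = compound-free wells with enzyme and 100% = wells lacking proteasome; stock transfer was 100 nL into about 20 µL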
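Assay system: Proteasome-bound UCH37. Buffer or medium: pH 7.4 Tris-HCl (50 mM) with ovalbumin, ATP-MgCl2, DTT. Incubation: 30 min preincubation with enzyme, 25 min cleavage at room temperature. Measured by: fluorescence, ex 355 nm, em 460 nm. Read-out basis: percent inhibition. Control set: wells without proteasome as full block, compound-free enzyme plus substrate as uninhibited.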
Beta2AR agonist: human beta-2 adrenergic receptor agonism by FAP; P07550; AID 504454; 0.43% of 340,000 active; response, % (no concentration beside the values); Am2.2-beta2AR cells, FAP receptor internalization, flow cytometry; reference of the scale not given here;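 active means response above a set limit, near 3 SD of response in nonfluorescent compounds, cut at about 42% in these data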;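 further: stock transfer was 100 nL into about 11 µL; a reference agonist was the positive control; negative values mostly stem from fluorescent compounds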
HNF4A DNA FP: change in binding of human HNF4 alpha to DNA; P41235; HNF4a-FITC DNA binding, fluorescence polarization, 1 h; activity change, % at 10 µM; 0.3% of 360,000 active; in the data active means activity change above about 30%, passing the limit was not always enough;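 further: controls were the assay level and a saturating level of protein; the project sought stronger binding though the title names inhibitors; some compounds called inactive have numbers as strong as hits; positive values seem to mean higher polarization but the record does not say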
Vif TR-FRET: HIV-1 Vif–A3G interaction blockers – biochemical, TR-FRET, GST-Vif 1-94, biotin-A3G peptide, dose response retest, primary screen (AID 1117319); TR-FRET GST-Vif / biotin-A3G peptide binding; higher % means a stronger effect; test concentration not given here; strong numbers were not always called active; inhibition, %, or IC50 in µM where a hit was titrated; 0.57% of 260,000 active;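 active means above the screen mean plus three standard deviations and confirmed in dose response; inconclusive means results disagree or hit not tested in dose response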;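 further: Vif residues 1-94 fused to GST binding biotinylated APOBEC3G peptide 110-148; 0% = full assay without inhibitor and 100% = GST in place of GST-Vif; retest series ran down from 100 µM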
Ecoli growth: inhibitors of Escherichia coli growth; OD600, 23 h; stronger effect = lower value; OD600 absorbance (test concentration not listed); 0.21% of 330,000 active; AID 1053175;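 active means OD600 absorbance below the run mean of sample wells minus 3.6 SD, in any replicate, cut at about 0.56 in these data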;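 further: stock transfer was 300 nL into about 60 µL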
Bfl-1 A1 inh: inhibitors of the anti-apoptotic protein A1, read as caspase activation; 0.066% of 330,000 active; caspase activation, % (no concentration beside the values); MEF A1-2A-BIM cells, Caspase-Glo 3/7 luminescence, 3 h; percent of clofoctol response, vehicle zero;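 active means over half of replicate activation scores above 10%, or exactly half above 10 with the replicate mean above 10; inconclusive means replicate mean below 10 yet half the replicates above 10; inactive means over half of replicates below 10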;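 further: wells of about 30 µL received 50 nL stock; many hits fall short of the cut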
LANA-H2B inh: blocks KSHV LANA binding to histone H2A/H2B; Q9QR71; cell-free LANA-H2A/H2B peptide, fluorescence polarization; inhibition, % (test concentration not listed); 0.6% of 320,000 active; AID 2629; in the data active means inhibition mostly above about 10%, no sharp cut-off; inactive means mostly below about 6.7%;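 further: stock transfer was 7.5 nL into about 10 µL; 0% = median of vehicle wells and 100% = median of positive control wells; one replicate is shown; the record names a cut of 25% in any replicate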
Target sequence (Q9QR71 whole entry, looked up): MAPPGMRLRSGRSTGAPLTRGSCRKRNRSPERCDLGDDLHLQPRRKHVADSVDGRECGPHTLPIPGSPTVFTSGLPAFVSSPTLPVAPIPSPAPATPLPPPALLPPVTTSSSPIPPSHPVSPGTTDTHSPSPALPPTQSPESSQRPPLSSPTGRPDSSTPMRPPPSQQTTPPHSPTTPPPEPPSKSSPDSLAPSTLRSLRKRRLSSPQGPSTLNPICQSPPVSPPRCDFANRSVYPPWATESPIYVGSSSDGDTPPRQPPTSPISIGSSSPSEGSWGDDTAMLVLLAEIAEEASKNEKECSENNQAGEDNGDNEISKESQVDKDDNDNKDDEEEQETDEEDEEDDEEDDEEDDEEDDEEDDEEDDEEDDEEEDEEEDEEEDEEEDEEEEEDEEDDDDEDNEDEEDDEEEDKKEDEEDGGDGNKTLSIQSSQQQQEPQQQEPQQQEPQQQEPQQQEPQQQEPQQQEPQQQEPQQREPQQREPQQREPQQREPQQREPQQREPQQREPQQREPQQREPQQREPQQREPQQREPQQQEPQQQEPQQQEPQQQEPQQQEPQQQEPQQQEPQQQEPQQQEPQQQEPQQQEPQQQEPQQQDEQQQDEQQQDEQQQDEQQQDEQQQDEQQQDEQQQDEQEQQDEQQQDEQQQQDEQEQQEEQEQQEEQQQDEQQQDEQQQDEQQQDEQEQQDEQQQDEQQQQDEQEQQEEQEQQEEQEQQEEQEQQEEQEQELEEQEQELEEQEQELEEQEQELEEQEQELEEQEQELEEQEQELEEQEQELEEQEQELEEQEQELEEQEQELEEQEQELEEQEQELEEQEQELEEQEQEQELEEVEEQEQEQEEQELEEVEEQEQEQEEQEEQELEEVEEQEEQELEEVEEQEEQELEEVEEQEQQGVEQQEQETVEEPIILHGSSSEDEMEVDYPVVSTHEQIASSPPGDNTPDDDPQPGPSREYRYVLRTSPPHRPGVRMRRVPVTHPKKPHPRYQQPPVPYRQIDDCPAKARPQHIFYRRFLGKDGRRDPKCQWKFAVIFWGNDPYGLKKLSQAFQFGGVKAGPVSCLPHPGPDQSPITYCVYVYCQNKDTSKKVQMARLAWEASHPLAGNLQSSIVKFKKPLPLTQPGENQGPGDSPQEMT
* = called active by the depositor; i = inactive; ? = inconclusive; nt = not tested or not shown; & = joins results of further samples.

SMILES	UCH37 inh	Beta2AR agonist	HNF4A DNA FP	Vif TR-FRET	Ecoli growth	Bfl-1 A1 inh	LANA-H2B inh
C=CCn1c(SCC(=O)/C(C#N)=C(\C)N)nc2sc(CC)cc2c1=O	1.4&-1.5	-10&-15	0.2&1.9	-7%&-42%	0.69&0.72	0.4	0.4
CCCCc1cc(=O)oc2cc(C)cc(OCC(=O)Nc3cccnc3)c12	-6.4	-2	-9.1	nt	0.71	-0.3	2.8
COc1ccc(-c2cc3ncc(C(C)=O)c(C)n3n2)cc1	-128	-15	-0.5	0%	0.68	-2.2	2.6
O=C(c1ccc2c(c1)CCN2S(=O)(=O)c1ccccc1)N1CCN(c2ccccc2F)CC1	3.5	-2	0.9	nt	0.7	nt	nt
COc1ccc(NC(=O)C2CCN(S(=O)(=O)c3cccnc3)CC2)cc1Cl	4.5	4	-2.3	-3%	0.7	0.3	2.8
N#CC(c1ccc(O)cc1)c1ncc(C(F)(F)F)cc1Cl (stereo not drawn)	0.3	-7	-1.1	nt	0.69	-1.0	0.3
O=C(NC(=S)Nc1ccc(N2CCCCC2)cc1)c1ccco1	6.5	2	3.2	14%	0.65	nt	nt
S=c1[nH]nc(Cc2ccc(Br)cc2)n1/N=C/c1ccc(Cl)cc1	nt	22	-4.7	6%	nt	0.8	-5.8
CC(C)[C@H](NC(=O)c1ccc(Cl)c([N+](=O)[O-])c1)C(=O)O	0.0	-7	1.3	6%	0.71	0.1	2.0
Cc1ccc(C(=O)Nc2cc(C(C)C)c(O)c(C(C)C)c2)cc1	3.9	3	-1.1	-3%	0.67	-0.2	-4.0
COc1ccc(C(CNC(=O)c2ccco2)N2CCCCC2)cc1 (stereo not drawn)	1.4	4	0.7	-5%	0.66	0.7	7.1
CN1CCC(NC(=O)c2ccncc2)CC1	0.8	-1	2.9	nt	0.7	-0.7	-6.0
COc1ccc(-n2c(=O)c3c4c(sc3n(CC(=O)NCC3CCCO3)c2=O)CCCC4)c(OC)c1 (stereo not drawn)	1.2	-10	-0.4	-6%	0.68	-0.3	-4.7
O=C(N/N=C/c1ccc(N2CCOCC2)cc1)c1ccccc1OCCOc1ccccc1	nt	17	3.0	-3%	nt	1.5	-3.8
Cc1ccc2occ(C(c3nnnn3C3CCCC3)N3CCN(C(=O)c4ccco4)CC3)c(=O)c2c1 (stereo not drawn)	1.4	-3	1.2	-4%&3%	0.64	-0.8	1.9
COC(=O)c1cnc(SCc2ccc(C)cc2)n1C	3.9	-1	-1.0	-3%	0.7	-0.1	10
COCCn1c(C)cc(C(=O)Cn2nc(C(=O)O)c3ccccc3c2=O)c1C	1.2	1	-1.3	-1%	0.64	-3.1	1.2
COc1ccc(NC(=O)N(C)C[C@H]2Oc3c(NS(=O)(=O)c4cn(C)cn4)cccc3C(=O)N([C@H](C)CO)C[C@@H]2C)cc1	7.8	-3	5.8	-4%	0.71	0.4	0.9
Cc1ccc(C2CC(=O)NC(SCC(=O)Nc3nccs3)=C2C#N)cc1 (stereo not drawn)	1.6	-4	2.1	9%	0.74	-1.1	-4.7
O=C(COC(=O)CCC1CCCC1)Nc1cc(S(=O)(=O)N2CCOCC2)ccc1Cl	3.9	0	5.8	2%	0.67	nt	nt
COc1ccc2sc(-c3ccc(SC)cc3)c(/C=C/c3ccc(OC)c(OC)c3)c2c1	-29	0	-0.1	nt	nt	0.3	-1.9
Nc1nnc(SCc2c(F)cccc2Cl)s1	4.3	12	1.9	1%	0.69	2.0	-1.9
O=C(CN1CCN(Cc2ccc(F)cc2Cl)C1=O)NCc1cccs1	3.0	1	-3.8	-3%	0.7	0.2	-0.9
O=C(CSc1nc(N2CCCCC2)nc(N2CCCCC2)n1)c1ccccc1	3.5	5	0.8	3%	0.8	-0.5	-6.0
CC12CCC(=O)N1C(C(=O)NNC(=O)COc1ccccc1F)CS2 (stereo not drawn)	3.5	-5	-2.1	-5%	0.72	0.7	-1.7
SMILES	UCH37 inh	Beta2AR agonist	HNF4A DNA FP	Vif TR-FRET	Ecoli growth	Bfl-1 A1 inh	LANA-H2B inh
COC(=O)C(C)N(C(=O)c1cccc(Cl)c1)c1c(C)cccc1C (stereo not drawn)	2.2	1	1.9	2%	0.67	-0.2	-2.0
CSCCC(NC(=O)c1ccccc1Br)C(=O)N1CCC(C)CC1 (stereo not drawn)	1.9	3	2.9	nt	0.71	-0.6	0.3
C=CCn1c(SCc2ccc(C#N)cc2)nnc1-c1ccc(C)cc1	-0.4	-2	1.1	5%	0.72	-0.4	-1.5
O=C(NCc1ccccc1)c1nc[nH]c1C(=O)N1CCc2ccccc2C1	-0.6	-9	14	nt	0.71	-0.6	1.4
CCCc1cc(=O)oc2cc(C)cc(OCC(=O)NCCCn3ccnc3)c12	-135	-4	-0.3	nt	0.74	-0.1	-6.5
CCC(=O)N(C)/C=C1\Sc2ccccc2C1=O	4.0	13	-0.1	3%	0.77	0.6	0.1
CCCn1c(N)c(Sc2ccc(C)cc2)c(=O)n(CCC)c1=O	1.2	1	-1.7	1%	0.7	0.8	-3.4
COC(=O)c1cccc(NC(=O)CSc2nncn2-c2ccccn2)c1	4.4	-10	-2.8	24%	0.69	0.7	-1.6
CCOC(=O)CCCNC(=O)c1cncc(O)c1	-13	-1	0.4	14%	0.68	1.0	-0.7
CCc1cccc(NC(=O)CCNS(=O)(=O)c2ccc3c(c2)oc(=O)n3C)c1	4.8	-7	3.5	nt	0.64	1.0	7.3
CC(=O)N1CCCc2cc(S(=O)(=O)N(C)CCC#N)ccc21	0.2	4	-1.0	67%	0.72	-0.3	5.5
COc1ccccc1CCC(=O)OCC(=O)NC1CCCC1	-0.2	-1	1.4	3%	0.63	0.5	0.5
Cc1ccc(S(=O)(=O)N2CCN(C(=O)CN3CCCCC3)C2)cc1	0.4	0	3.9	2%	0.7	2.0	-1.2
O=c1[nH]cccc1-c1nc2ccccc2[nH]1	i	-6	5.4	-2%	0.69	-1.3	0.1
CC(=O)Nc1ccc(S(=O)(=O)NC(C(=O)O)C(C)C)cc1 (stereo not drawn)	0.5	4	0.6	2%	0.74	0.3	-9.8
COc1cccc(/C=N/NC(=O)C(C)n2nc(C)c([N+](=O)[O-])c2C)c1O (stereo not drawn)	nt	-8	1.4	nt	nt	-0.8	0.9
O=C(CC(=O)c1ccccc1)Nc1cc([N+](=O)[O-])ccc1Cl	7.0	-2	1.7	nt	0.63	-5.0	-0.2
COC(=O)c1ccc(NC(=O)COc2ccc(C3C(C#N)=C(N)Oc4c3ccc3ccccc43)cc2OC)cc1 (stereo not drawn)	-8.1	2	7.4	32%	0.67	0.6	0.2
C[C@H](NC(N)=O)C(=O)Nc1ccc(OCc2ccccc2)cc1	1.7	2	1.7	-1%	0.67	0.8	12*
CC(=O)Oc1cc2cccc(OC(C)=O)c(=O)c2c(OC(C)=O)c1OC(C)=O	12	5	-0.3	?	0.64	1.1	2.2
O=C(Nc1ccc(S(=O)(=O)N2CCOCC2)cc1)c1ccco1	3.5	-7	3.0	-4%	0.66	3.2	0.1
O=S(=O)(c1ccc(Br)s1)N1CCN(c2ccccn2)CC1	-0.1	1	5.7	-4%	0.67	-0.6	-0.1
COc1ccccc1N1CCN(C(=O)CCC(=O)O)CC1	nt	3	0.3	6%	nt	0.5	0.2
COc1ccc(-n2c(SCCC(=O)O)nnc2-c2ccncc2)cc1	1.6	0	3.1	5%	0.75	0.8	-9.1
O=S(=O)(c1ccc(Cl)cc1)N1CCN(Cc2ccncc2)CC1	0.0	2	0.7	nt	0.68	-0.6	0.4
SMILES	UCH37 inh	Beta2AR agonist	HNF4A DNA FP	Vif TR-FRET	Ecoli growth	Bfl-1 A1 inh	LANA-H2B inh
O=C(NCC(c1ccc(F)cc1)N1CCOCC1)c1ccco1 (stereo not drawn)	-2.0	-7	-5.5	-9%	0.73	0.3	-0.5
CC(C(=O)NCC1(c2ccccc2)CCCC1)N1CCOCC1 (stereo not drawn)	0.8	2	-2.5	2%	0.74	0.3	4.1
Cc1cc(NC(=O)c2ccc(C)o2)no1	nt	2	-0.3	9%	nt	-2.8	-1.4
CCOc1ccc(C2/C(=C(\O)c3ccc4c(c3)OCCO4)C(=O)C(=O)N2CCCN2CCOCC2)cc1 (stereo not drawn)	7.3	-2	-1.1	-7%	0.67	1.4	-0.6
COc1ccc([N+](=O)[O-])cc1NC(=O)COC(=O)C1CC1	3.9	-4	4.7	nt	0.72	-0.1	1.0
COc1ccccc1NS(=O)(=O)c1cc(C(=O)N2CC(C)CC(C)C2)ccc1C (stereo not drawn)	5.5	4	0.4	-2%	0.7	-1.0	-3.3
COC(=O)C1=C(N)Oc2cc(C)n(CC3CCCO3)c(=O)c2C1c1ccc(Cl)c(Cl)c1 (stereo not drawn)	2.7	15	3.8	-4%	0.67	-0.5	-5.6
COC(=O)c1ccc(OCC(=O)NC2CCCCCCC2)cc1	1.8	-11	1.8	-6%	0.72	-0.4	-1.4
O=C(Cc1c(F)cccc1Cl)Nc1ccc(S(=O)(=O)N2CCOCC2)cc1	-2.8	3	0.8	4%	0.71	-0.2	-4.2
O=C(NC(=S)Nc1nc(-c2cccc([N+](=O)[O-])c2)cs1)c1cc(Cl)ccc1Cl	2.9	7	-1.7	31%	0.69	0.3	-3.3
CN(C(=O)/C=C/c1ccco1)c1ccccc1C(=O)O	4.7	-3	-6.6	nt	0.69	0.2	3.5
COc1ccc(CCN2C(=O)C(Oc3ccccc3C)C2c2ccc3c(c2)OCO3)cc1 (stereo not drawn)	4.2	8	-1.6	-2%	0.7	0.5	-1.1
COC(=O)Cc1[nH]nc2c1C(c1ccc(O)c(OC)c1)C(C#N)=C(N)O2 (stereo not drawn)	3.2	2	1.9	27%	0.69	0.8	-1.6
O=C(CCl)Nc1cccc(-c2cnc3ccccc3n2)c1	7.4	-1	1.0	-1%	0.67	-1.4	-1.9
COc1cc(C(=O)NC(=S)Nc2ccc(N3CCCC3)cc2)cc(OC)c1OC	3.3	0	3.0	26%	0.71	-0.6	-5.8
Cc1nc(Nc2cccc(F)c2)c2oc3ccccc3c2n1	-94	20	-0.7	nt	0.68	-1.1	-0.6
COCCNC(=O)c1ccc2c3n(nc2c1)-c1ccccc1CO3	-6.0	0	3.9	2%	0.62	-7.6	-6.6
Cc1c(C)n(C)c2ccc(C(=O)NCCc3ccco3)cc12	-1.8	-1	16	nt	0.71	-0.8	-1.5
O=C(NCCN1CCc2ccccc2C1)Nc1ccc([N+](=O)[O-])cc1	12	2	1.7	5%	0.62	0.2	2.0
CC(=O)OC(COc1ccc(F)cc1)Cn1cnc2ccccc21 (stereo not drawn)	7.2	-2	1.6	-1%	0.66	0.0	0.0
Cc1ccc(S(=O)(=O)N2C[C@@H]3CCCC[C@@H]3[C@@H](C)[C@H]2c2cn(Cc3ccccc3)c3ccccc23)cc1	-1.4	-3	-2.2	-1%	0.71	nt	nt
N=c1oc2ccc(Br)cc2cc1C(=O)NC1CCCCCC1	5.2	20	4.4	nt	0.73	0.7	5.2
O=C(Nc1ccc2c(c1)CCC2)c1cccc(S(=O)(=O)N2CCN(c3ccccc3)CC2)c1	3.4	11	0.5	-12%	0.72	0.5	-1.0
COc1ccc(-c2noc(C3CCCN(C(=O)c4ccc(C)cc4)C3)n2)cc1 (stereo not drawn)	0.9	-4	-2.2	?	0.66	0.0	4.5

Full records as entered above. Values in the order: UCH37 inh	Beta2AR agonist	HNF4A DNA FP	Vif TR-FRET	Ecoli growth	Bfl-1 A1 inh	LANA-H2B inh
`COc1cc(C(=O)NC(=S)Nc2ccc(N3CCCC3)cc2)cc(OC)c1OC` is listed with 3.3	0	3.0	26%	0.71	-0.6	-5.8
`O=C(NCCN1CCc2ccccc2C1)Nc1ccc([N+](=O)[O-])cc1` is listed with 12	2	1.7	5%	0.62	0.2	2.0
